Bioassay records as filed in PubChem.
Mtb bLac sens: beta-lactam sensitization of Mtb H37Rv; AID 434955; inhibition, % at 25 µM; M. tuberculosis H37Rv growth with meropenem, percent inhibition; hits of this screen are not shown here; 0.27% of 330,000 active;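 active = about 74% or more and at least 40 points above the plate without the antibiotic, then above 30% in a dose series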;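 also: growth measured after seven days incubation then overnight dye step; 0% = bacteria only wells and 100% = bacteria with antibiotic; twin plates without the antibiotic show which effects depend on it; some results filed as inactive read as strong as hits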
* marks the source's active call; other numbers are inactive results. The list is partial, so the mix of outcomes need not match the whole.

SMILES | Mtb bLac sens
Cc1ccc(NC(=O)C2C3C=CC4(O3)C2C(=O)N(CCCN2CCCC2)C4C(=O)NC2CCCCC2)cc1Cl (stereo not drawn) | -10
CC(C(=O)NCc1ccccc1)N(Cc1ccccc1Cl)C(=O)c1snc(C(N)=O)c1N (stereo not drawn) | 7
CN(C)N(C(=O)c1cc(-c2cccs2)nn1-c1ccccc1)C1CCS(=O)(=O)C1 (stereo not drawn) | -1
Cc1cnc(C(=O)OCc2cc(=O)n3c(C)cccc3n2)cn1 | -5
C[C@]12C=C[C@H](O)CC1=CCC1C2CC[C@@]2(C)C1CCC21OCCO1 (stereo partly drawn) | -1
Cn1c(N)c(C(=O)COC(=O)/C=C/c2cccc(F)c2)c(=O)n(C)c1=O | 0
COc1cc(OC)cc(-c2cc3cc4c(cc3cn2)OCO4)c1 | 6
CC(C)Oc1ccc(S(=O)(=O)N2CCCCC2)cc1NC(=O)CN1CCCC1c1cccs1 (stereo not drawn) | -1
CC(=O)Nc1ccc(S(=O)(=O)NCCC(=O)N2CCC(Cc3ccccc3)CC2)cc1 | -7
COc1ccc(C2=Nn3c(nnc3-c3ccccc3Cl)SC2)cc1OC1CCCC1 | 65
COC(=O)[C@@H](CC(C)C)N(Cc1ccccc1)S(=O)(=O)N(Cc1ccccc1)[C@@H](CC(C)C)C(=O)OC | -6
COC(=O)[C@]1(C)N[C@H](CN(C)C(=O)Nc2ccc(OC)cc2)[C@@H]2C(=O)N(C)C(=O)[C@@H]21 | 0
CC1CCCC(NC(=O)CN2CCN(S(=O)(=O)c3cccs3)CC2)C1C (stereo not drawn) | -5
CC(=O)c1cccc(NC(=O)C(C)OC(=O)CN2C(=O)NC(C)(C)C2=O)c1 (stereo not drawn) | -4
CC[C@@H]1C/C=C\Cc2ccccc2[C@@H](C(=O)C[C@@H](O)CC(C)=O)OC1=O | 6
O=C(NCc1ccccc1)c1ccc(S(=O)(=O)NCc2ccco2)cc1 | -29
N#Cc1ccc(NC(=O)COC(=O)c2ccc(F)c(S(=O)(=O)N3CCOCC3)c2)cc1 | 0
O=C(/C=C/c1ccc(OC(F)F)cc1)OCC(=O)N1CCC(c2ccccc2)=N1 | 25
COc1ccc(NC(=O)COC(=O)CN2C(=O)NC(C)(C)C2=O)cc1 | -2
CC(=O)c1cccc(OCC(=O)N(C)CC(=O)NCc2ccco2)c1 | -1
Nc1nnc(SCC(=O)Nc2nnc(-c3ccccc3)o2)s1 | 4
COc1ccc(N2C(=O)CC(c3ccccc3)CC2=O)cc1 | -2
CC(=O)Nc1ccc(S(=O)(=O)NCCC(=O)NCCCc2ccccc2)cc1 | -6
Cc1cc(C)n(CC(=O)NNC(=O)COc2ccc(Br)cc2F)n1 | -1
O=c1oc(C2(O)CCCCC2)cc2ccc(/C=C/c3ccc(F)cc3)cc12 | 13
CCC1Nc2ncnc(N3CCOCC3)c2N(Cc2ccc(Cl)cc2)C1=O (stereo not drawn) | -6
COc1cccc(C(=O)N(C)Cc2c(C)nn(C3CCS(=O)(=O)C3)c2C)c1 (stereo not drawn) | 1
COc1cc(C(C)=O)ccc1Oc1ccc(S(=O)(=O)N2CCOCC2)cn1 | 0
CSCCC(NC(=O)c1ccccc1)C(=O)N1CCN(C(=O)c2ccccc2)CC1 (stereo not drawn) | 1
CCN(C(=O)COC(=O)c1cccnc1)c1cccc2ccccc12 | 1
CCN(C(=O)COC(=O)c1ccc(=O)n(Cc2ccccc2)n1)C1CCCCC1 | 50
CCN(Cc1nc2ccccc2c(=O)[nH]1)C(=O)COc1ccccc1-c1ccccc1 | -3
COc1ccc(Nc2nc(C)cc(C)c2C#N)c(OC)c1 | 1
Cc1ccccc1C(=O)NCC(=O)NC1CC1 | 0
COc1cc(C(=O)NNC(=O)C2CSC3(C)CCC(=O)N23)cc(OC)c1OC (stereo not drawn) | 3
CCCCN(CCCC)CCC(O)c1cc2c(Cl)cc(Cl)cc2c2cc(C(F)(F)F)ccc12 (stereo not drawn) | 99
COc1cccc(-c2nn(Cc3ccccc3)cc2CO)c1 | 0
COC(=O)[C@H](Cc1ccccc1)NC(=O)Cn1ccc(NC(=O)OCc2ccccc2)nc1=O | -12
CN(CC(=O)Nc1ccccc1Cl)C(=O)c1ccc(N2CCCCCC2)c([N+](=O)[O-])c1 | -1
COc1ccc(S(=O)(=O)Nc2ccc3c(c2)C(=O)N([C@H](C)CO)C[C@H](C)[C@@H](CN(C)C(=O)Nc2ccccc2)O3)cc1 | -6
Cc1ccc(S(=O)(=O)N2CCCCC2)cc1NC(=O)Cc1cccs1 | -2
COC(=O)c1ccc(N2CCN(CCNC(=O)Nc3ccc(OC)cc3)CC2)cc1 | 92
Cc1c(NC(=O)COC(=O)/C=C/c2cccc(Br)c2)c(=O)n(-c2ccccc2)n1C | 0
C=CCn1c(SCC(=O)c2ccc(O)c(O)c2)nnc1-c1cccc(OC)c1 | 3
Cc1ccc(C(=O)O/N=C(\N)c2ccccn2)cc1C | -2
COc1ccc2cc(C=O)n(C)c2c1 | -6
CCOc1ccccc1NC(=O)C(c1ccccc1)N1CCN(CC(=O)N2CCCC2)CC1 (stereo not drawn) | -12
Nn1c(SCC(=O)Nc2nccs2)nnc1-c1cccnc1 | -5
COc1ccc(C2=NN(C(=O)CSc3nccn3C)C(c3ccco3)C2)cc1 (stereo not drawn) | -4
CC(=O)N1CCN(CC(=O)Nc2cccc(S(=O)(=O)N3CCCCC3)c2)CC1 | -10
(cont.)
SMILES | Mtb bLac sens
C[C@]12CCC3C(CC[C@H]4C[C@@H](O)CC[C@]34C)C1C/C(=N/O)[C@@H]2O (stereo partly drawn) | -4
CSc1cccc(CNC(=O)C2CCC(=O)N(CC3CCCCC3)C2)c1 (stereo not drawn) | 4
O=C1NC(Cc2ccccc2)c2nc3cc(Cl)ccc3c(=O)n2-c2ccccc21 (stereo not drawn) | -3
Cc1cccn(Cc2c(Cl)cccc2Cl)c1=O | 2
CN(C(=O)CSc1cccc[n+]1[O-])C1CCCCC1 | 89
Cc1cccc(C(=O)Nc2cc(S(=O)(=O)N3CCOCC3)ccc2N2CCCCC2)c1 | -2
O=C(O)COc1ccccc1C=NNC(=O)c1ccccc1NS(=O)(=O)c1cccs1 | 4
COc1cc([C@@H]2CC=C(C(=O)O)CN2S(=O)(=O)c2ccc(C)cc2)cc(OC)c1OC | 6
COc1ccc(C(=O)OCC(=O)c2ccc3c(c2)NC(=O)CO3)cc1[N+](=O)[O-] | 1
COc1ccc(C(=O)Nc2cccc(S(=O)(=O)NC3=NCCC3)c2)cc1OC | -4
Fc1ccc2cc(-c3ccsc3)ncc2c1 | -5
COc1ccc(S(=O)(=O)Nc2ccccc2N2CCOCC2)cc1OC | 6
CC(Sc1ccc(S(=O)(=O)N(C)C)cn1)C(=O)NC1CCCC1 (stereo not drawn) | -4
COc1ccccc1N1CCN(C(=O)c2cn(Cc3ccccc3)nc2-c2cccnc2)CC1 | -6
CCOc1ccc(CN2C(=O)c3ccccc3C2=O)cc1C(=O)NC1CC(C)(C)NC(C)(C)C1 | -4
Cc1cc(NC(=O)CSc2nnc(-c3cccc(F)c3)n2N)no1 | -5
CC(C)[C@H](NC(=O)c1ccccc1)C(=O)Nc1cccc(S(=O)(=O)N2CCOCC2)c1 | -3
Cn1c(SCC(=O)NCC2CCCO2)nnc1-c1ccco1 (stereo not drawn) | 9
COc1cc(-c2noc(C)c2C(=O)NCC[C@@H]2CCCN2C)cc(OC)c1OC | -14
COc1ccc(C(=O)OCC#CCSc2nnc(-c3cccc4ccccc34)o2)cc1 | 10
Cc1cccc(C(C)C)c1NC(=O)COC(=O)c1cc2ccccc2oc1=O | -4
CCOC(=O)C1CCCN(C(=O)c2ccc3[nH]c4c(c3c2)CC(C)CC4)C1 (stereo not drawn) | -7
O=C(Nc1ccc2c(c1)OCO2)C1CC1 | 19
O=S(=O)(NCCC1=CCCCC1)c1ccc(Br)cc1 | 3
Nn1c(SCC(=O)Nc2ccc3c(c2)CCC3)nnc1C1CC1 | -4
CCCn1c(N)c(C(=O)CSc2n[nH]c(-c3ccccc3F)n2)c(=O)n(C)c1=O | -3
O=C(Nc1ccc(Br)cc1)N1C[C@H]2C[C@@H](C1)c1cccc(=O)n1C2 | 6
CCOc1ccccc1OCC(=O)Nc1cc(C)on1 | 1
O=C(COC(=O)/C=C/c1ccccc1)NC(=O)NC1CCCCC1 | 5
c1coc(CSSCc2ccco2)c1 | 5
CN(Cc1ccccc1)C(=O)COC(=O)COc1ccc(Cl)cc1 | 55
CSc1ccccc1NC(=O)CN(C)C(=O)COc1cccc2cccnc12 | 100
Cc1cccc(C(=O)N2CCCC(c3nc(-c4ccc(C)o4)no3)C2)c1 (stereo not drawn) | -7
CCN(c1ccccc1)S(=O)(=O)c1ccc(OC)c(NC(=O)C2CC2)c1 | 9
CC(C)N(Cc1nnc(-c2ccc(Cl)cc2)o1)C(=O)c1cc2ccccc2o1 | 20
O=S(=O)(c1ccc(SCCOc2cccc(Br)c2)nc1)N1CCCC1 | 1
NC1=NC(=O)/C(=C/c2ccccc2OCC(=O)Nc2ccc(F)cc2)S1 | -1
COc1ccc2oc(C(=O)OCC(=O)Nc3ccc(NC(C)=O)cc3)c(C)c2c1 | -2
CC1CC(C)CN(C(=O)COC(=O)c2ccc3ccccc3n2)C1 (stereo not drawn) | 17
COCCNC(=O)N1[C@H]2CC[C@@H]1C(C(=O)OC)=C(c1ccc(OC)c(OC)c1)C2 | 1
C[C@H](CO)N1C[C@H](C)[C@@H](CN(C)Cc2ccc(Oc3ccccc3)cc2)Oc2ccc(NC(=O)Cn3cnnn3)cc2C1=O | 4
CSCCC(NC(=O)c1ccccc1Cl)C(=O)N1CCCCC1 (stereo not drawn) | 98
Cc1ccccc1-c1cc(C(=O)NCc2cccc(C(F)(F)F)c2)n(CC2CC(c3cccnc3)=NO2)n1 (stereo not drawn) | 5
COc1ccc(NC(=O)C2CCN(S(=O)(=O)c3cccs3)CC2)cc1OC | -6
C=C(C)[C@H]1CC=C(C)C(=O)C1 | 3
O=S(=O)(NCCOc1ccccc1F)c1cccc(Br)c1 | -1
C/C(=N/Nc1nc(C)cc(C)n1)c1ccc(Br)cc1 | 8
Cc1nn(CC(=O)N(C)C)c(C)c1S(=O)(=O)N1CCOCC1 | 0
O=C(COC(=O)c1cccc(F)c1)NC(=O)NC1CCCC1 | 4
O=C(Nc1cccc(C(F)(F)F)c1)C1CC(=O)N(CCc2ccccc2)C1 (stereo not drawn) | -6
More structures follow:
SMILES | Mtb bLac sens
CCCc1cc(=O)[nH]c(SCC(=O)Nc2ccc(N3CCCCC3)cc2)n1 | 1
Cc1cc(C(=O)NNC(=O)c2ccc(Cl)c(S(N)(=O)=O)c2)c(C)o1 | 0
Cc1noc(NS(=O)(=O)c2ccc(NC(=O)Cc3ccc([N+](=O)[O-])cc3)cc2)c1C | 3
CC(NC(=O)CN(Cc1ccccc1)S(=O)(=O)c1ccccc1)c1cccnc1 (stereo not drawn) | -9
O=C(O)C1CCCCC1C(=O)Nc1cccc(Br)c1 (stereo not drawn) | 0
Cc1ccc([C@@H]2CC=C(C(=O)O)[C@H](c3ccccc3)N2S(=O)(=O)c2ccccc2C)cc1 | -2
CCOC(=O)c1ccccc1NC(=O)COC(=O)CCC1CCCC1 | -2
CN(C)C1=NC[C@H](Cc2ccccc2)N1CC1CCCCCC1 | 0
CC(C)NC(=O)N(C)C[C@@H]1Oc2c(NC(=O)Nc3ccccc3)cccc2C(=O)N([C@H](C)CO)C[C@H]1C | 2
O=C(NCCN1CCCc2ccccc21)C1CCC(=O)N(CCc2ccccc2)C1 (stereo not drawn) | -5
COc1ccc(OC)c(NC(=O)CSc2sc3c(O)cc(=O)[nH]c3c2C#N)c1 | -8
O=C(Cc1cccc(NC(=O)C2CCN(C(=O)CCc3ccccc3)CC2)c1)Nc1cccc(C(=O)N2CCCC2)c1 | 1
CC(C)[C@]12CC(=O)[C@H](C)[C@H]1C2 | -6
Cc1ccc(-c2csc3ncnc(N4CCN(S(=O)(=O)c5cccs5)CC4)c23)cc1 | 6
O=S(=O)(Nc1cc(S(=O)(=O)N2CCOCC2)ccc1NCC1CCCO1)c1ccc(F)cc1 (stereo not drawn) | 2
O=C(COC(=O)Cc1c[nH]c2ccccc12)Nc1ccccc1C(F)(F)F | 3
CC(=O)N1CCN(c2ccc(NC(=O)c3cccc(Cl)c3Cl)cc2)CC1 | -7

Entries listed so far containing a nitro group on carbon:
SMILES | Mtb bLac sens
CN(CC(=O)Nc1ccccc1Cl)C(=O)c1ccc(N2CCCCCC2)c([N+](=O)[O-])c1 | -1
COc1ccc(C(=O)OCC(=O)c2ccc3c(c2)NC(=O)CO3)cc1[N+](=O)[O-] | 1
Cc1noc(NS(=O)(=O)c2ccc(NC(=O)Cc3ccc([N+](=O)[O-])cc3)cc2)c1C | 3

Gathered by group: the compounds so far with a Cl atom (13)
SMILES | Mtb bLac sens
Cc1ccc(NC(=O)C2C3C=CC4(O3)C2C(=O)N(CCCN2CCCC2)C4C(=O)NC2CCCCC2)cc1Cl (stereo not drawn) | -10
CC(C(=O)NCc1ccccc1)N(Cc1ccccc1Cl)C(=O)c1snc(C(N)=O)c1N (stereo not drawn) | 7
COc1ccc(C2=Nn3c(nnc3-c3ccccc3Cl)SC2)cc1OC1CCCC1 | 65
CCC1Nc2ncnc(N3CCOCC3)c2N(Cc2ccc(Cl)cc2)C1=O (stereo not drawn) | -6
CCCCN(CCCC)CCC(O)c1cc2c(Cl)cc(Cl)cc2c2cc(C(F)(F)F)ccc12 (stereo not drawn) | 99
CN(CC(=O)Nc1ccccc1Cl)C(=O)c1ccc(N2CCCCCC2)c([N+](=O)[O-])c1 | -1
O=C1NC(Cc2ccccc2)c2nc3cc(Cl)ccc3c(=O)n2-c2ccccc21 (stereo not drawn) | -3
Cc1cccn(Cc2c(Cl)cccc2Cl)c1=O | 2
CN(Cc1ccccc1)C(=O)COC(=O)COc1ccc(Cl)cc1 | 55
CC(C)N(Cc1nnc(-c2ccc(Cl)cc2)o1)C(=O)c1cc2ccccc2o1 | 20
CSCCC(NC(=O)c1ccccc1Cl)C(=O)N1CCCCC1 (stereo not drawn) | 98
Cc1cc(C(=O)NNC(=O)c2ccc(Cl)c(S(N)(=O)=O)c2)c(C)o1 | 0
CC(=O)N1CCN(c2ccc(NC(=O)c3cccc(Cl)c3Cl)cc2)CC1 | -7
